HPGD inh: inhibitors of human 15-hydroxyprostaglandin dehydrogenase (HPGD); P15428; purified HPGD, NADH fluorescence kinetic, PGE2 substrate; Potency, µM, inactives show at the highest dose activity change, negative = inhibition, most hits filed as inhibitors; actives 4.3% (n = 150,000); AID 894; active = well fitted inhibition curve with a large enough effect (not every such curve was filed as active); inconclusive = small, poorly fitted or top-dose-only effect, or another doubt; inactive = no such curve, though single readings can be large or run the other way;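 note: top concentration of the series not given in the record; plate controls included wells without enzyme; inactives centre near -10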
Target sequence (P15428 whole entry, looked up): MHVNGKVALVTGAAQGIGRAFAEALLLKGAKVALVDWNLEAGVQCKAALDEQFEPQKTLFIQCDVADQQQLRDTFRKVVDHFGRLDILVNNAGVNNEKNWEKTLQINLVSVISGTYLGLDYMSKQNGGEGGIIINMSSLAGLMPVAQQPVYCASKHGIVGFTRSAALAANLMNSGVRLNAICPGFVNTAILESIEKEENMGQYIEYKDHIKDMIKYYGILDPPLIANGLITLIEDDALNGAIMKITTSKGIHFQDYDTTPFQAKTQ
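20 nM HPGD preincubated 15 min at room temperature with compound in 50 mM Tris-HCl pH 8, 0.01% Tween 20. Started with 1 mM NAD+ and 30 uM prostaglandin E2; NADH fluorescence (360/450 nm) read 5 times over 30-s intervals, last minus first.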
Numbers without * were called inactive; ? = inconclusive; & = joins results of further samples. % is set by controls: 0 for no effect and ±100 for the full control effect; potency is the fitted concentration of half-maximal effect. Only part of the results is shown (hit frequency here may not be typical).

cpd	SMILES	HPGD inh
1	O=C(CSc1nnc(-c2ccccc2)o1)N1CCc2ccccc2C1	?
2	O=C(Nc1nccs1)c1ccc(Cl)s1	?
3	COc1cccc(NCc2cc3c(C(C)(C)C)nn(-c4ccccc4)c3[nH]c2=O)c1	?
4	O=c1c(F)cn(C2CCCO2)c(=O)n1Cc1c(Cl)cccc1Cl (stereo not given)	15.8µM*
5	COc1ccc(NC(=O)c2ccc(N(C)S(C)(=O)=O)cc2)cc1OC	-3.5%
6	CN1CCS/C1=C/C=C1/SC(=S)N(Cc2ccccc2)C1=O	-13.5%
7	CC1(C)CNC(=O)c2sc(N3CCCCC3)nc2C1	-13.5%
8	Cc1cc(Cl)ccc1NC(=O)Nc1c(C)n(-c2ccccc2)c(=O)n1C	-9.9%
9	COc1ccc(S(=O)(=O)N2CCSC2c2ccc(OC)c(OC)c2)cc1 (stereo not given)	-16.8%
10	CC(=O)NCCc1ccc(S(=O)(=O)N2CCOCC2)cc1	-2.1%
11	CCCc1cc(C(=O)Nc2cccnc2)no1	-16.7%
12	O=S(=O)(NCC(Nc1ccc(Cl)cc1)c1ccccc1)c1ccccc1 (stereo not given)	-5.4%
13	Cc1[nH]c2ccccc2c1/C=N/NC(=O)c1cccc(S(=O)(=O)Nc2ccccc2Cl)c1	-29.4%
14	Cc1cccc(C(=O)O/N=C/c2c(Cl)n(C)c3ccccc23)c1	-4.8%
15	CCNS(=O)(=O)c1ccc(Br)c(OC)c1	-7.7%
16	COc1ccc(OC)c(C2/C(=C(\O)c3ccc(OC)c(Cl)c3)C(=O)C(=O)N2CCN(C)C)c1 (stereo not given)	-21.9%
17	COc1cc(CNCCO)cc(Br)c1OCc1cccs1	-5.1%
18	COc1ccc(Cl)cc1N(CC(=O)N/N=C/c1ccc(OC(C)C)cc1)S(=O)(=O)c1ccc(C)c([N+](=O)[O-])c1	-23.1%
19	O=C(N/N=C/c1nn(-c2ccccc2)cc1-c1ccccc1)c1ccncc1	?
20	O=C(COc1ccc(-c2nnco2)cc1)N1CCN(S(=O)(=O)c2ccccc2)CC1	-2.6%
21	CCCCOCCCNC(=O)Cc1cccs1	-9.0%
22	COc1ccc(NS(=O)(=O)CC(C)C)c(OC)c1	-6.3%
23	Cc1cc(Cl)ccc1NC(=S)N1CCN(Cc2ccccc2)CC1	-0.7%
24	COC(=O)c1ccc(OCC(=O)NC(C)(C)C)cc1	-19.3%
25	COc1ccc(-c2nsc3c(SCc4ccccc4)ncnc23)cc1	?

Fetched by compound from the entries so far (4):
cpd	SMILES	HPGD inh
9	COc1ccc(S(=O)(=O)N2CCSC2c2ccc(OC)c(OC)c2)cc1 (stereo not given)	-16.8%
25	COc1ccc(-c2nsc3c(SCc4ccccc4)ncnc23)cc1	?
18	COc1ccc(Cl)cc1N(CC(=O)N/N=C/c1ccc(OC(C)C)cc1)S(=O)(=O)c1ccc(C)c([N+](=O)[O-])c1	-23.1%
2	O=C(Nc1nccs1)c1ccc(Cl)s1	?

Back to the main list; the four compounds before the break are reprinted first.
cpd	SMILES	HPGD inh
22	COc1ccc(NS(=O)(=O)CC(C)C)c(OC)c1	-6.3%
23	Cc1cc(Cl)ccc1NC(=S)N1CCN(Cc2ccccc2)CC1	-0.7%
24	COC(=O)c1ccc(OCC(=O)NC(C)(C)C)cc1	-19.3%
25	COc1ccc(-c2nsc3c(SCc4ccccc4)ncnc23)cc1	?
26	O=C1N/C(=N\N=C\c2cccnc2)SC1Cc1ccc(SC(F)F)cc1 (stereo not given)	-21.3%
27	CCOc1ccccc1C(=O)NCC(=O)OCc1c(C)noc1C	-10.8%
28	Cc1cc(C)nc(NS(=O)(=O)c2ccc(NC(=O)c3ccc(S(=O)(=O)N4CC(C)OC(C)C4)cc3)cc2)n1 (stereo not given)	-12.6%
29	CC(=O)N/N=C/c1cc([N+](=O)[O-])ccc1OCCOc1ccccc1	4.2%
30	CCOC(=O)c1cc2c(ccn2C)n1CC(=O)N(Cc1ccccc1)c1ccccc1	-16.1%
31	CC1(C)CC(=O)C2=C(C1)N(c1ccccc1C#N)C(N)=C(C#N)C2c1cccs1 (stereo not given)	-4.7%
32	Cn1c(=O)c2cc(S(=O)(=O)N3CCOCC3)ccc2n(C)c1=O	-14.8%
33	CCOC(=O)N1CCC(N2CCN(c3cc(C)ccc3C)CC2)CC1	-0.9%
34	N#CCOc1nc(N2CCOCC2)nc(N2CCOCC2)n1	0.7%
35	Oc1ccc(-c2[nH]ncc2-c2ccc(Cl)cc2)c(O)c1	-8.9%
36	C[N@@+]1(CC[N@@+]2(C)CCC[C@H]2c2cccnc2)CCC[C@@H]1c1cccnc1	-12.9%
37	CC(=O)OCC(=O)[C@]1(O)C(OC(C)=O)CC2C3CCC4=CC(=O)C=C[C@@]4(C)[C@]3(F)C(O)C[C@]21C (stereo not given in full)	-3.7%
38	O=C(COc1ccc(Cl)cc1)NCCCn1ccnc1	-8.6%
39	CCN(C(=O)c1c(C)cc(=O)oc1C)c1ccc2c(c1)OCO2	-14.4%
40	c1ccc2c(CNn3cnnc3)cccc2c1	-4.2%
41	Cc1[nH]nc2ncc(C(=O)c3ccccc3O)cc12	-23.5%
42	O=C(Nc1ccccc1)N1CCN(c2cccc(C(F)(F)F)c2)CC1	-9.2%
43	O=C(Nc1ccc(-c2cn3ccccc3n2)cc1)c1ccco1	-13.7%
44	Cc1ccc(NC(=S)NNC(=S)NCc2ccccc2)cc1	-27.0%
45	O=C(NCc1ccc(F)cc1)C1C2C=CC3(CN(Cc4cccnc4)C(=O)C13)O2 (stereo not given)	-7.2%
46	CCOc1cc(-c2nc(-c3ccc(C)nc3OCC)no2)cc(OCC)c1OCC	?
47	Cc1csc(N(C(=O)c2ccc(S(=O)(=O)N(C)C)cc2)c2ccccc2)n1	-2.3%
48	CCCC(=O)c1c[nH]c(C(=O)NCc2ccco2)c1	-6.2%
49	O=c1[nH]c2ccc(S(=O)(=O)NCc3ccccn3)cc2s1	-14.0%
50	CCN1CCN(C(=O)Nc2cccc3ccccc23)CC1	-18.2%
51	CCCCCOc1ccc(C(=O)NC(CCC)C(=O)O)cc1 (stereo not given)	0.4%
52	CCC(=O)Nc1ccc(NC(=O)Cc2ccccc2)cn1	-6.6%
53	Cc1cc(Nc2cccc(F)c2)nc(-c2ccccc2O)n1	-8.1%
54	Cc1ccc(OCC(=O)c2cc(C)n(-c3ccccc3)c2C)c([N+](=O)[O-])n1	-9.9%
55	COc1cccc(/C=N/n2c(=S)n(C)c3cc(C)c(C)cc32)c1OC	-14.5%
56	O=C(O)CCCN=C1CCCc2ccccc2N1	-5.6%
57	N#CC(C(N)=O)=C1CCC2(CC1)OCCCCO2	-4.1%
58	COC(=O)c1ccc(NC(=O)CSC2=NC(=O)C(c3ccccc3)C(=O)N2)cc1 (stereo not given)	-22.6%
59	CCc1ccc(CCC(=O)Nc2nnc(C)s2)o1	-4.8%
60	O=c1c2cccnc2[nH]c(=S)n1CCCN1CCN(c2ccccc2F)CC1	-15.3%
61	NC(=O)c1nsc(C(=O)N(CC(=O)NCc2ccc(F)cc2)Cc2ccco2)c1N	-22.9%
62	Cc1c(Cl)c(=O)oc2cc(OCC(=O)NCc3cccs3)ccc12	?
63	Cc1ccsc1/C=C1\SC(N2CC(C)OC(C)C2)=NC1=O (stereo not given)	-15.6%
64	Cn1cc(Cl)c(C(=O)NC(=S)Nc2sc3c(c2C#N)CCCCC3)n1	10µM*
65	C=CCNC(=O)CSc1cc([N+](=O)[O-])cc(S(=O)(=O)Cc2ccccc2)c1	?
66	CC(C)(C)C(=O)Nc1ccc(C(=O)OC2CCCCC2)cc1	-10.2%
67	CCOc1cc2c(C#N)c(N3CCNCC3)nc(N)c2c(N)n1	?
68	Cc1cc(NC(=O)c2cccc(S(=O)(=O)N3CCCC3)c2)no1	-15.7%
69	O=C(C(Sc1ccccc1)c1ccccc1)N1CCOCC1 (stereo not given)	0.3%
70	CS(=O)(=O)c1ccc(/C=N\NC(N)=S)cc1	-11.0%
71	CC(=O)C1=C(C)NC(=O)NC1c1cc(Br)ccc1OCC#N (stereo not given)	-6.8%
72	Cc1cc(-c2cccs2)nc(-n2cccc2)n1	-10.8%
73	CCOCCN(C(=O)COC)c1cccc(OC)c1	-3.7%
74	OC(CNCc1ccco1)COc1ccccc1 (stereo not given)	-6.4%
75	O=c1[nH]c2[nH]c(=S)[nH]c(=S)c2[nH]1	3.55µM*

(further entries)
cpd	SMILES	HPGD inh
76	O=C(Cc1ccc(Br)cc1)N1CCN(c2ccccc2O)CC1	-24.2%
77	CC(C)(C)C(=O)Nc1ccnc(-c2cccnc2)n1	-7.5%
78	C[C@@H]1CC2(OC(O)[C@]3(C)O[C@H]23)O[C@H]2C[C@@]3(C)[C@@H]4CC[C@H]5C(C)(C)C(O[C@@H]6OC[C@@H](O)[C@H](O)[C@H]6O)CC[C@@]56C[C@@]46CC[C@]3(C)[C@@H]12 (stereo not given in full)	-0.2%
79	Cc1cccc(-c2nnn(Cc3nnc(NC(=O)c4ccccc4)s3)n2)c1	-14.1%
80	Cc1cnc(CNc2nc(-c3ccc(N(C)C)cc3)nc3ccccc23)cn1	-16.3%
81	CCOc1ccccc1C1C(C#N)=C(SCC(=O)OC)NC(=O)C1C(=O)OC (stereo not given)	-3.8%
82	C[C@](N)(COP(=O)(O)O)C(=O)O	-7.7%
83	COc1ccccc1NC(=O)C1=C(C)Nc2nc(CCCO)nn2C1c1ccc2c(c1)OCO2 (stereo not given)	?
84	COC(=O)NC1CCS(=O)(=O)C1 (stereo not given)	-12.1%
85	CC(CC(O)C1OC1(C)C)C1CCC2(C)C3=CCC4C(C)(C)C(=O)CCC4(C)C3CC[C@@]12C (stereo not given in full)	-4.3%
86	N#C/C(=C/c1cn(-c2ccccc2)nc1-c1cccc(S(=O)(=O)N2CCCC2)c1)C(=O)NCc1ccco1	?
87	Cc1nn(C)c(Oc2ccccc2)c1CCNS(=O)(=O)c1ccc(F)cc1	-0.3%
88	CC(=O)Nc1nnc(C)s1	-6.6%
89	CC1CCN(c2c(NCc3ccc(C(=O)NCCc4ccc(Cl)cc4)cc3)c(=O)c2=O)CC1	?
90	COc1ccc(C(=O)NCCn2cc(SCC(=O)N3CCOCC3)c3ccccc32)cc1	-7.3%
91	O=C1CCC([N+](=O)[O-])C(c2ccc(Br)cc2)N1 (stereo not given)	-6.8%
92	CC(=O)Nc1ccc(NC(=O)CSc2nnc(-c3ccccc3)n2Cc2ccc3c(c2)OCO3)cc1	-5.4%
93	O=C(ONc1ccc(N=NC(=O)c2ccccc2O)cc1)c1ccccc1	?
94	CC1(C)CC(=O)c2cnc(N)nc2C1	-12.3%
95	CCOC(=O)c1c(NC(=O)Cn2nc(C(F)(F)F)cc2C)sc(C)c1C	?
96	Cc1cccc(OCCCC(=O)Nc2ccc(S(=O)(=O)N3CCCC3)cc2)c1	-14.7%
97	COC(=O)c1ccc(C(NC(=O)OCc2ccccc2)/C(=C/[C@@H](C)C(=O)N(C)Cc2cccnc2)c2cccnc2)cc1 (stereo not given in full)	-2.7%
98	FC(F)(F)c1cccc(N2CCN(Cc3cccnc3)CC2)c1	-4.6%
99	COc1ccc(C(CC(=O)O)NC(=O)C2CCCCC2)cc1 (stereo not given)	-7.3%
100	N#Cc1nc(COc2ccccc2)oc1N1CCCCCC1	-27.5%
101	CC(=O)c1cc(Cl)ccc1OC(=O)c1ccco1	-10.8%
102	CCOC(=O)C1CN(S(=O)(=O)c2ccccc2)C1	-8.8%
103	CN(C)c1ccc(C2CC(=O)NC3=C2C(=O)CC(C)(C)C3)cc1 (stereo not given)	-5.9%
104	O=C(c1ccc(N2CCN(CCO)CC2)nc1)N1CCOCC1	-10.4%
105	CCCCN(CCCC)C(=O)c1cc(Cl)ccc1[N+](=O)[O-]	-3.4%
106	COc1ccc2c(c1OC)C(=O)O[C@H]2C1c2c(cc3c(c2OC)OCO3)CCN1C (stereo not given in full)	-1.3%&-9.4%
107	COc1cccc(C(c2sc3ncnn3c2O)N2CCc3ccccc3C2)c1 (stereo not given)	?
108	COCCn1c(=O)cnc2cnc(N3CCNCC3)nc21	?
109	COc1cccc(CNC(=O)C2CCCN(S(C)(=O)=O)C2)c1 (stereo not given)	-5.1%
110	COc1ccc(C(=N/O)/C(=N/O)c2ccc(OC)cc2)cc1	-6.9%
111	CC1=CC[C@@]23CCCN2C(=O)CCC[C@H]3C1	-5.9%
112	C=CCC(C)(O)c1cccc(C(F)(F)F)c1 (stereo not given)	-5.2%
113	C/C(CC(=O)Nc1ccccc1Br)=N\NC(=O)C(=O)N1CCCC1	-0.8%
114	Cc1nc2ccc(S(=O)(=O)NCC(=O)N3CCC(C)CC3)cc2s1	1.2%
115	O=C(Nc1nc2c(s1)CCc1ccccc1-2)c1ccco1	-27.5%
116	CC(=O)Nc1ccc(NC(=S)NC(=O)c2cc3ccccc3o2)cc1	-11.5%
117	O=C(N/N=C1\CCCc2ccccc21)c1ccc([N+](=O)[O-])cc1Cl	-8.2%
118	CCC(C(=O)OCCN(CC)CC)c1ccccc1 (stereo not given)	-1.8%
119	CS(=O)(=O)N(CC(=O)NCc1ccc2c(c1)OCO2)c1ccccc1	1.0%
120	Cc1cccc(CN2CCN(CC(=O)O)C2=O)c1	-17.4%
121	OC(COCC1COc2ccccc2O1)CN1CCCCC1 (stereo not given)	1.9%
122	CCOC(=O)C1=C(C)N(C)C(=S)NC1c1ccccc1Cl (stereo not given)	-14.5%
123	CCN(CC)S(=O)(=O)c1cccc(-c2nnc(SCCOc3ccccc3C)o2)c1	-11.2%
124	COc1cc(O)c(C(C)=O)cc1OC	-15.0%
125	CCOc1ccc(NC(=O)CSc2nnc(COc3c(C)cccc3C)o2)cc1	-8.7%

Bioassay records deposited in PubChem by National Center for Advancing Translational Sciences (NCATS).
